# Assay outcomes as filed in PubChem.
# Mtb betalactam: beta-lactam sensitization of Mtb H37Rv. 330,000 compounds, 0.27% hits. M. tuberculosis H37Rv growth with meropenem, percent inhibition; hits of this screen are not shown here. inhibition, % at 25 µM;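 active = about 74% or more and at least 40 points above the plate without the antibiotic, then above 30% in a dose series; inconclusive = first-round hits that could not be retested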;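 note: growth measured after seven days incubation then overnight dye step; 0% = bacteria only wells and 100% = bacteria with antibiotic; twin plates without the antibiotic show which effects depend on it; some results filed as inactive read as strong as hits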
# RecA splice inh: inhibitors of M. tuberculosis RecA intein splicing. P9WHJ3. cell-free RecA intein splicing, fluorescence. inhibition, %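 (about 9 µM by stock and volumes)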. 290,000 compounds, 0.75% hits. AID 2221; in the data active = inhibition above about 30%; inconclusive = no clear call, values can overlap the other calls;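 note: 0% = vehicle wells and 100% = reference inhibitor control wells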
# Target sequence (P9WHJ3 whole entry, looked up, canonical isoform): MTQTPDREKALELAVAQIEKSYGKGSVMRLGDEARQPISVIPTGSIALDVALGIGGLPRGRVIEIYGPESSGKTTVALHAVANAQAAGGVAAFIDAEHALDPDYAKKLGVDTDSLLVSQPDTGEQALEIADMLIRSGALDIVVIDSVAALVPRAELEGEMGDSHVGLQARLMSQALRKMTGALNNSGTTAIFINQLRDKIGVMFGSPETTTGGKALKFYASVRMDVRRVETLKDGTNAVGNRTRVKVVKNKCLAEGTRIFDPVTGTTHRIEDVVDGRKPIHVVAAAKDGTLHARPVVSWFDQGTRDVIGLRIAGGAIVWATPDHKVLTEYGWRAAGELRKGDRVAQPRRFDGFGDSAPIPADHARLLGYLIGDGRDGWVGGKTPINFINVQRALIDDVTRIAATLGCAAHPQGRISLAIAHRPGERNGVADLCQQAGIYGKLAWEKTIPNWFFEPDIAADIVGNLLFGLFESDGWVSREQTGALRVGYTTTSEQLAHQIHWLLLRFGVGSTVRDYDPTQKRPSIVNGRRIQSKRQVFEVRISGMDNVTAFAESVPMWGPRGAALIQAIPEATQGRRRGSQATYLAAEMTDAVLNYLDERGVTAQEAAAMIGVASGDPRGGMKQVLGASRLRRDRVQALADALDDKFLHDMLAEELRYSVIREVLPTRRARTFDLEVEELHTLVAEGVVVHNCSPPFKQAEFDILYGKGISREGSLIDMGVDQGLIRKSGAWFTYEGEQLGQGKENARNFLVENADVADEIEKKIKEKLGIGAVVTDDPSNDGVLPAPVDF
# Arbovirus anti: blocks arbovirus infection; arbovirus infection cell-based antiviral screen; inhibition, % at 10 µM; AID 1251; 200,000 compounds, 0.37% hits;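 active = inhibition from about 30%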;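 note: bluetongue infection of BSR cells; cell survival read as ATP light after 72 h; 0% = infected wells without compound and 100% = uninfected wells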
# YopH inh: blocks Yersinia enterocolitica YopH tyrosine phosphatase. inhibition, %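 (about 10 µM by stock and volumes)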. 140,000 compounds, 0.16% hits. fluorescence Ex485/Em525;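 active = inhibition of 50% or more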;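 note: controls were vehicle for no effect and minimum signal wells for full effect; inactives centre near -20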
# Mtb H37Rv: M. tuberculosis H37Rv growth inhibitors, H37Rv strain (AID 1626) | 220,000 compounds, 0.95% hits | M. tuberculosis H37Rv growth inhibition; higher % means a stronger effect | one-dose inhibition, % at 10 µM; IC50 in µM for titrated hits;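 active = confirmed in a dose series; inconclusive = inhibition above 80% but not taken into the dose series; inactive = below 80% or under 30% at every dose of the series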;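 note: bacteria incubated seven days before Alamar blue readout; 0% = bacteria only wells and 100% = bacteria with antibiotic wells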
# Arbovirus anti repeat: further read-out of Arbovirus anti, marked with its call; inhibition, %; measured here: 10K subset replicate screen; many hits read low in the repeat;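 first of two repeat runs on a subset; 0% = infected and 100% = uninfected wells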
# * = called active by the depositor; ? = inconclusive; / = not tested or not shown.
SMILES,Mtb betalactam,RecA splice inh,Arbovirus anti,YopH inh,Mtb H37Rv,others
COc1ccc(N2CCN(C(=O)CCC(=O)N3CC(C)Oc4ccc(C)cc43)CC2)cc1 (stereo unspecified),2,-0.8,/,/,/,
N#C/C(=C(/O)C(Cl)c1ccccc1)c1nc2ccccc2s1 (stereo unspecified),-5,9.2,-8,-29,-1%,
CCC(C)NC(=O)Cn1c(=O)n(CCCC(=O)NCc2ccccc2Cl)c(=O)c2ccccc21 (stereo unspecified),-5,/,-3,-23,-2%,
Cc1nnc(SCC(=O)Nc2ccc(N(C)C)cc2)n(N)c1=O,2,-2.0,22,/,-3%,
Cc1nc(NC(=O)CC(C)C)sc1-c1csc(Nc2ccc(Cl)cc2Cl)n1,96,3.3,0,-35,12%,
O=C(O)c1ccc(-c2noc(-c3ccccc3C(F)(F)F)n2)cc1,-10,2.7,/,/,-2%,
COC(=O)CC1=C(C(=O)OC)C2(C(=O)Nc3c(C)cccc32)C(C#N)=C(N)O1 (stereo unspecified),2,18,-3,-38,-2%,
O=C(O)/C=C/c1cn(-c2ccccc2)nc1-c1cc2ccccc2o1,87,-3.8,/,/,44%,
O=[N+]([O-])c1ccc(Cl)cc1NCCCN1CCOCC1,7,2.2,8,-4,6%,
Cc1csc(=O)n1CCC(=O)OCC(=O)c1c(N)n(C)c(=O)n(C)c1=O,-10,4.3,/,/,/,
CC(=O)c1cc(-c2ccccc2)n(CC(=O)NCc2cccs2)c1C,2,-1.4,-7,39,-5%,
CCN1CCN(c2ccc(NC(=O)c3cccnc3)cc2Cl)CC1,-2,-1.7,-3,-29,3%,
CCOC(=O)N1CCC(Nc2c(OCC)c(=O)c2=O)CC1,3,2.6,8,/,-2%,Arbovirus anti repeat=3
COC(=O)c1cc(Cl)c(NS(=O)(=O)c2ccccc2)cc1OC,0,-0.3,5,-38,2%,
O=C(Cc1ccc(S(=O)(=O)N2CCOCC2)s1)N1CCN(S(=O)(=O)c2cccc(Cl)c2)CC1,-9,-0.9,/,/,/,
CC(C)(C)CC(=O)Nc1ccc(Nc2ccccc2)cc1,16,7.6,-10,-29,-3%,
O=C(C[n+]1ccccc1)Nc1nc2ccccc2s1,0,1.6,6,-21,-3%,
COc1ccc(OCCOC(=O)CNC(=O)c2ccc(Cl)cc2Cl)cc1,36,1.2,/,/,/,
O=C(COC(=O)CCCNC(=O)c1ccc(Cl)cc1)NCc1ccccc1Cl,-5,-3.8,-3,1,/,
Cc1cc(N2CCN(C/C=C/c3ccccc3)CC2)n2ncnc2n1,3,2.6,2,-29,0%,
COc1ccccc1NC(=O)CSc1nnnn1-c1ccc(C(=O)O)cc1,-11,0.1,5,/,-1%,
COc1ccc(-c2nsc(C(=O)N(c3ccc(F)cc3)C(C(=O)NC3CCCC3)c3ccc(OC)cc3)c2N)cc1 (stereo unspecified),11,-2.0,-14,-27,-3%,
CC(C)(C)c1ccc(COC(=O)CNC(=O)CNC(=O)Cc2ccccc2)cc1,4,-2.7,6,-40,1%,
CC(C)C[C@H](NC(=O)N1c2ccccc2NC(=O)[C@@H]1C(C)C)C(=O)N[C@@H](Cc1ccccc1)C(=O)O,-6,0.6,/,/,/,
CC(C)c1nnc(NC(=O)c2cccnc2)s1,-4,2.2,4,-18,11%,
Cc1onc(-c2ccccc2)c1C(=O)Nc1nnc(CC(C)C)s1,0,-2.1,/,/,/,
O=C(c1ccc(=O)oc1)N1CCCc2ccccc21,-9,-4.1,17,3,-13%,
CC(C)(C)c1ccc(N/N=C(\C#N)S(=O)(=O)C(C)(C)C)cc1,4,-1.3,34*,/,28%,
CCc1cccc(CC)c1C(O)c1cccnc1 (stereo unspecified),-1,-0.4,4,-23,6%,
Cc1ccc(NC(=S)Nc2ccc(S(=O)(=O)Nc3ncccn3)cc2)cc1Cl,96,-2.4,/,/,79%,
O=C(Nc1cccnc1Cl)c1cc(-c2ccc(Br)cc2)on1,10,2.5,/,/,/,
O=C(O)c1cccc(CN2C(=O)S/C(=C/c3cccc([N+](=O)[O-])c3)C2=O)c1,-8,22,/,/,-1%,
CC(=O)Nc1ccc(C(=O)CSc2nnc(C)o2)cc1,-2,0.3,1,-32,0%,
CC1CCN(C(=O)COC(=O)c2cc3ccccc3cc2O)CC1,99,-5.3,-3,-7,0.63µM*,
Cc1ccccc1/C=N/N1CCN(c2ccccc2)CC1,-6,-2.7,-18,-14,7%,
Cc1cc(NS(=O)(=O)c2ccccc2)c([N+](=O)[O-])cc1C,2,-0.4,11,-20,2%,

# 5 compounds already listed, ordered by length of the SMILES, ascending.
SMILES,Mtb betalactam,RecA splice inh,Arbovirus anti,YopH inh,Mtb H37Rv,others
CCc1cccc(CC)c1C(O)c1cccnc1 (stereo unspecified),-1,-0.4,4,-23,6%,
CC(C)c1nnc(NC(=O)c2cccnc2)s1,-4,2.2,4,-18,11%,
O=C(c1ccc(=O)oc1)N1CCCc2ccccc21,-9,-4.1,17,3,-13%,
Cc1ccccc1/C=N/N1CCN(c2ccccc2)CC1,-6,-2.7,-18,-14,7%,
CC(C)(C)c1ccc(N/N=C(\C#N)S(=O)(=O)C(C)(C)C)cc1,4,-1.3,34*,/,28%,

# Other results follow.
SMILES,Mtb betalactam,RecA splice inh,Arbovirus anti,YopH inh,Mtb H37Rv,others
COC(=O)c1ccc(COc2cc(O)c3c(c2)OC(C)(C)CC3=O)cc1,26,1.7,10,-4,12%,
COc1ccc(-n2cnnc2SCC(=O)Nc2cc(S(=O)(=O)N3CCCCC3)ccc2C)cc1,7,0.5,2,-22,5%,
CCOC(=O)N1CCN(C(=O)c2ccccc2NC(=O)c2ccc(OC)cc2)CC1,-9,-7.0,2,-26,-8%,
COC(=O)c1cc(NC2c3ccccc3C(=O)N2c2ccc(Cl)cn2)cc(C(=O)OC)c1 (stereo unspecified),-3,1.7,18,-44,9%,Arbovirus anti repeat=-4
Cc1ccc(NC(=O)CN2C(=O)NC(C)(c3ccccc3)C2=O)c(C)c1 (stereo unspecified),7,-5.1,/,/,/,
C=CCn1c(C)c(C(C)=O)c(N2CCCC2)nc1=S,-2,/,8,-22,6%,
Cc1ccc(C(=O)NCCN(C)C)c(C)c1,5,-1.4,0,6,-5%,
COC(=O)c1[nH]c(C)c(/C(O)=C2\C(=O)C(=O)N(CCN(C)C)C2c2ccc(C)o2)c1C (stereo unspecified),-3,-4.1,0,-28,-5%,
Cc1cccc(NC(=O)COC(=O)c2cc3ccccc3oc2=O)c1,-2,/,-3,/,-3%,
CN(C(=O)c1ccccc1C(=O)c1ccccc1)C1CCS(=O)(=O)C1 (stereo unspecified),4,-0.3,-1,3,-11%,Arbovirus anti repeat=0
CN1CC(=O)N/C1=N\C(=O)Nc1ccc2c(c1)N(C)C(=O)CS2,-9,4.5,-8,-26,-4%,
Cc1ccc(C(C)C)cc1S(=O)(=O)NCc1ccccn1,-28,3.5,/,/,/,
CCC(C)(C)NC(=O)c1ccc(Sc2nncn2C)c([N+](=O)[O-])c1,3,-1.3,-4,-20,-3%,
CSc1nc(=S)cc(C)[nH]1,2,0.6,/,/,7%,
N#Cc1ccsc1NC(=O)C1CCCN1S(=O)(=O)c1cccs1 (stereo unspecified),-2,-0.2,/,/,/,
O=C(COC(=O)c1cc(Br)ccc1O)NCC1CCCO1 (stereo unspecified),-4,-3.5,/,/,/,
COc1ccc(CNC(=O)NS(=O)(=O)c2ccc(C)cc2)cc1,-8,-0.9,/,/,7%,
Cc1cccc2c1NC(=O)C21N2CCCC2C(C(=O)c2ccc3ccccc3c2)C12C(=O)Nc1ccccc12 (stereo unspecified),70,2.4,/,/,22%,
CS(=O)(=O)NCCSCc1ccc(Cl)cc1,-7,-1.5,6,-35,-6%,Arbovirus anti repeat=3
Cc1cc(C)c(C#N)c(SCc2nc3ccccc3c(=O)[nH]2)n1,-1,/,-4,/,-2%,
CCCC1=NN2C(=N)/C(=C\c3cc(C)n(-c4cc(C)cc(C)c4)c3C)C(=O)N=C2S1,39,-61,-20,-20,4%,
CC1=CC(=C(C#N)c2nc3ccccc3s2)C=C(C)N1Cc1ccco1,-5,0.8,11,-21,-11%,
c1ccc(CN(Cc2ccco2)C(c2ccncc2)c2nnnn2C2CCCC2)cc1 (stereo unspecified),0,6.3,4,-7,-11%,
CCN(C(=O)c1cc2c(=O)[nH]c3ccc(C)cc3c2s1)c1ccccc1C,5,-2.3,/,/,-2%,
CCOc1ccc(C)cc1S(=O)(=O)Nc1cccnc1,-10,2.0,/,0,4%,
Cc1nc2ccccc2c(=O)n1/N=C/C=C/c1ccccc1,-7,-2.2,/,/,-2%,
CCCCn1c(N)c(N(CCOC)C(=O)CN(C)S(=O)(=O)c2ccc(Cl)cc2)c(=O)[nH]c1=O,-4,-0.6,/,/,/,
CC/C(=N\NC(=O)CSCc1ccccc1Cl)c1ccc2c(c1)OCCO2,8,1.6,3,0,4%,
CCCOc1ccc(CNC(=S)N/N=C/c2ccc([N+](=O)[O-])cc2)cc1,5,-0.5,-10,-14,5%,
CCN(CC)S(=O)(=O)c1cc(C(=O)Nc2ccccc2C(=O)O)ccc1OC,10,0.3,16,-49,1%,
COc1ccc(C2(c3ccc(OC)cc3)NC(=O)N(CC(=O)N(C)c3ccccc3)C2=O)cc1,-6,-0.9,/,/,/,
OC(CNc1ncnc2sccc12)c1ccccc1 (stereo unspecified),2,-1.3,/,/,/,
COc1cc(/C=C2\SC(N)=NC2=O)cc(Cl)c1O,2,-3.7,/,/,/,
COC(=O)CNC(=O)COC(=O)c1cc(Cl)cc(Cl)c1N,94,-5.2,-4,-4,3%,
CC1CCN(C(=O)CNC(=O)Cn2ccc3ccccc3c2=O)CC1,-6,-1.0,6,1,-3%,Arbovirus anti repeat=6
O=C(NCCN1CCN(c2ccccc2F)CC1)C1c2ccccc2C(=O)N2CCc3ccccc3C12 (stereo unspecified),15,4.6,4,-43,-3%,

# Random excerpt: 2 records from the list
SMILES,Mtb betalactam,RecA splice inh,Arbovirus anti,YopH inh,Mtb H37Rv,others
CCOc1ccc(C)cc1S(=O)(=O)Nc1cccnc1,-10,2.0,/,0,4%,
Cc1nc2ccccc2c(=O)n1/N=C/C=C/c1ccccc1,-7,-2.2,/,/,-2%,

# Continuation.
SMILES,Mtb betalactam,RecA splice inh,Arbovirus anti,YopH inh,Mtb H37Rv,others
CCn1c(N2CCN(Cc3ccc([N+](=O)[O-])cc3)CC2)nc2ccccc21,-9,2.2,/,/,/,
COC(=O)CC(NS(=O)(=O)c1cccs1)c1ccccc1Cl (stereo unspecified),?,1.4,0,-32,-10%,
CCCOc1ccc(C(C)=O)cc1CSc1nc(O)cc(=O)[nH]1,-4,11,11,-22,-1%,
Cc1nc([N+](=O)[O-])cn1Cc1cccc2ccccc12,2,-0.7,/,/,/,
COC1(OC)N=C(NC(=O)Nc2ccccc2)C2(C#N)C(c3ccccc3)C12C#N (stereo unspecified),1,-1.8,2,-36,-13%,
N#C/C(=C/c1ccc([N+](=O)[O-])cc1)C(N)=O,1,1.5,16,/,1%,
COc1ccc(/C=N/NC(=O)c2cccc3ccccc23)c(OC)c1OC,1,1.7,/,/,/,
COc1cccc(N2CCN(C(=O)CCCCCNc3nc(=S)[nH]c4ccccc34)CC2)c1,35,-0.4,9,/,8%,
O=C(c1ccc2c(c1)OCO2)N(Cc1cccs1)C1(C(=O)NC2CCCCC2)CCCCC1,0,19,-20,4,7%,
O=C(COc1cccc2cccnc12)Nc1ccccc1N1CCOCC1,-3,13,14,/,-3%,
O=c1cccc2n1CC1CC2CN(Cc2c(Cl)cccc2Cl)C1 (stereo unspecified),1,6.5,11,-15,-1%,
CC(/C=C/c1ccc2c(c1)OCO2)=N/NC(=O)c1ccc(C)nc1,62,-2.0,-2,-18,-14%,
CCOC(=O)CCSc1nc(C)cc(C(F)(F)F)c1C#N,23,0.2,6,-68,7%,
COc1ccc(NCc2nnc(SCC(=O)Nc3cc(C(F)(F)F)ccc3Cl)o2)cc1,6,0.4,-6,7,35%,
Cc1c(-c2ccccc2)n[nH]c1C(=O)NN,0,-2.7,-6,/,5%,
c1ccc2c(c1)[nH]c1cnccc12,-2,-9.7,5,5,-2%,
O=C(CCc1ccc(S(=O)(=O)N2CCOCC2)cc1)N/N=C/c1ccc(O)c(O)c1O,1,-1.0,2,0,1%,
COc1ccc2[nH]c(=O)c(CN(CCCN(C)C)C(=O)Nc3ccccc3)cc2c1,-8,1.0,2,-23,-5%,
O=C(COC(=O)c1ccccc1-n1cnnn1)c1ccccc1,-8,-2.2,/,/,/,
Cc1cccn2cc(CCNS(=O)(=O)c3cccs3)nc12,15,0.8,/,/,-8%,
CCOC(=O)Cn1c(C(C)=O)nc2ccccc21,-6,0.3,7,-23,-4%,Arbovirus anti repeat=-2

# The list is partial; the hit share may differ from the screen's.
